Screening results from PubChem.
YopH PTP inh – YopH tyrosine phosphatase inhibitors, primary screen, biochemical, fluorescence Ex485/Em525. AID 898, 2007. actives 0.16% (n = 140,000). inhibition, %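 (about 10 µM by stock and volumes)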;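 active means inhibition of 50% or more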;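 further: controls were vehicle for no effect and minimum signal wells for full effect; inactives centre near -20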
Mtb bLac sens – beta-lactam sensitization of Mtb H37Rv, H37Rv; M. tuberculosis H37Rv growth with meropenem, percent inhibition; hits of this screen are not shown here; AID 434955, 2010; actives 0.27% (n = 330,000); inhibition, % at 25 µM;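 active means about 74% or more and at least 40 points above the plate without the antibiotic, then above 30% in a dose series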;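 further: growth measured after seven days incubation then overnight dye step; 0% = bacteria only wells and 100% = bacteria with antibiotic; twin plates without the antibiotic show which effects depend on it; some results filed as inactive read as strong as hits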
Arbovirus inh – antivirals against arbovirus infection, primary screen, cell-based, full library, 10K replicate subset; arbovirus infection cell-based antiviral screen; inhibition, % at 10 µM; actives 0.37% (n = 200,000); AID 1251, 2008;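 active means inhibition from about 30%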;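 further: bluetongue infection of BSR cells; cell survival read as ATP light after 72 h; 0% = infected wells without compound and 100% = uninfected wells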
Mtb H37Rv – M. tuberculosis H37Rv growth inhibitors, H37Rv strain (AID 1626). M. tuberculosis H37Rv growth inhibition; higher % means a stronger effect. actives 0.95% (n = 220,000). one-dose inhibition, % at 10 µM; IC50 in µM for titrated hits;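 active means confirmed in a dose series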;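 further: bacteria incubated seven days before Alamar blue readout; 0% = bacteria only wells and 100% = bacteria with antibiotic wells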
RecA intein inh – Mtb RecA intein splicing inhibitors, primary screen, biochemical, fluorescence, HTS; Protein RecA (Mycobacterium tuberculosis (strain ATCC 25618 / H37Rv)), P9WHJ3; inhibition, %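 (about 9 µM by stock and volumes)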; actives 0.75% (n = 290,000); cell-free RecA intein splicing; in the data active means inhibition above about 30%;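 further: 0% = vehicle wells and 100% = reference inhibitor control wells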
Target sequence (P9WHJ3 whole entry, looked up): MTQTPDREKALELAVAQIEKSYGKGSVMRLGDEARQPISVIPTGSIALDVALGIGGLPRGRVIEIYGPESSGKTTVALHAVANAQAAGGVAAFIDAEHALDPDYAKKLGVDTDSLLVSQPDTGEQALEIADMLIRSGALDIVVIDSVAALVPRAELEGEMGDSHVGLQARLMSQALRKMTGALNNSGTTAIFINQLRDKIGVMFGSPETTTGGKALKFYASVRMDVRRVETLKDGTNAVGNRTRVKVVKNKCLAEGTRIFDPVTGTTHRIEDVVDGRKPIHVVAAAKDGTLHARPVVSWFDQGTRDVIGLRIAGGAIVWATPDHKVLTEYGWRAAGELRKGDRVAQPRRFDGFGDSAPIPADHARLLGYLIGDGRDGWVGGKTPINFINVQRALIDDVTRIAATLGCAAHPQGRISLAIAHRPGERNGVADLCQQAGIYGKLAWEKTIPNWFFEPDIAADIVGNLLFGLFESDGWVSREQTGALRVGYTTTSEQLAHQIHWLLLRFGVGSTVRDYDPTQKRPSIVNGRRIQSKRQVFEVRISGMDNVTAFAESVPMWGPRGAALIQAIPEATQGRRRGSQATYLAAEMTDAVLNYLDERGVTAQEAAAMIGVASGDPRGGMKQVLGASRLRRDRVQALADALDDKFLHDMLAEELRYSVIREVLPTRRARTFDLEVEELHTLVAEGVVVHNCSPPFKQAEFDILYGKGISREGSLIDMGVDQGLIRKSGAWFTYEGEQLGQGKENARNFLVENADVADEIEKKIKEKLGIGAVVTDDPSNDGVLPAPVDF
Arbovirus inh repeat – second read-out of Arbovirus inh, no call of its own (marks repeat the call); inhibition, %; measured here: 10K subset replicate screen; many hits read low in the repeat;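 first of two repeat runs on a subset; 0% = infected and 100% = uninfected wells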
* hit, by the source's call; nt = not tested or not shown; & = joins results of further samples. These rows are one share of the data. The share of hits here may be higher or lower than overall.

SMILES	YopH PTP inh	Mtb bLac sens	Arbovirus inh	Mtb H37Rv	RecA intein inh	others
CCOC(=O)C1CCN(c2c(NCc3ccc(C(=O)NC(C)CC)cc3)c(=O)c2=O)CC1 (centres undefined)	49	-3	-3	-12%	-2.1
O=C(COc1ccc2c3c(c(=O)oc2c1)CCC3)NC(Cc1ccc(Cl)cc1)C(=O)O (centres undefined)	nt	-4	nt	nt	1.0
CC1(/[N+]([O-])=C/c2ccc(F)cc2)CCCCC1=O (centres undefined)	nt	-4	nt	-12%	-2.2
O=C(Cn1ncc2c(=O)oc3ccccc3c21)N1CCc2ccccc2C1	-7	-3	1	2%	2.8	Arbovirus inh repeat=2
CCN(CC)CCCNC(=O)CSc1nc(C)cc(C)n1	nt	1	1	-6%	1.0
CN(C)S(=O)(=O)c1ccc(N2CCCC2)c(C(=O)NC2CCC(O)CC2)c1 (centres undefined)	nt	-5	nt	nt	-1.5
Cc1onc(-c2ccccc2Cl)c1C(=O)Nc1ccc(F)c(F)c1	-48	5	11	-5%	2.2
NC(=S)NNc1cc(Cl)cc(Cl)c1	-9	71	-8	8%	1.1
CCc1nc(SCC(=O)Nc2cc(C)on2)c2c(=O)n(C)c(=O)n(C)c2n1	-17	0	-8	2%	-0.4
Cc1ccc(OCc2cc(C(=O)NC(C)Cc3cccnc3)no2)cc1C (centres undefined)	nt	44	nt	nt	-2.7
CN1CCC(OC(=O)c2ccccc2Cl)CC1	nt	-5	-14	-4%	-1.7
O=[N+]([O-])c1cc(C(F)(F)F)cc([N+](=O)[O-])c1NCc1cccnc1	-26	60	-8	4%	1.4
CCOC(=O)c1c(CC(C)C)csc1N	nt	-1	-1	2%	0.1
CC(C)CCC(C)NC(=O)Cc1ccc(S(=O)(=O)N2CCOCC2)s1 (centres undefined)	nt	-18	nt	nt	-1.4
CCC(=O)Nc1ccc(NC(=O)CSc2nnc(-c3ccco3)n2CC)cc1	nt	-6	nt	nt	-0.3
CNc1nc(C)nc(N/N=C/c2ccccc2)n1	nt	-1	3	4%	-1.8
COc1ccc(C)cc1NC(=O)NNC(=O)c1ccoc1C	nt	-1	nt	nt	-4.4
COc1cccc(CN2CCNC(=O)C2CC(=O)NCCc2ccccn2)c1 (centres undefined)	nt	1	5	2%	-1.0
O/C(=C\c1ccc2ccccc2n1)c1ccc(O)cc1O	nt	-1	5	1%	nt
O=c1c(-c2nn[nH]n2)coc2ccc(Cl)cc12	nt	-13	8	-1%	-1.7
O=C(CN1CCN(C(=O)C2CCCO2)CC1)Nc1ccc(Br)cc1 (centres undefined)	nt	-24	nt	nt	2.3
O=C(N/N=C/c1c(O)n(CCc2ccccc2)c(=O)[nH]c1=O)c1ccccc1O	nt	2	nt	11%	25
Cc1ccc(-c2cc(=O)[nH]c(NCc3ccccc3)n2)cc1	nt	-1	nt	nt	-1.8
CCOc1ccc2cc(C(=O)c3ccccc3)c(=O)oc2c1	13	9	2	0%	-5.3
Cc1ccc(C(=O)N2CCN(c3ccc(NC(=O)c4cccnc4Cl)cc3)CC2)cc1	nt	-3	nt	nt	0.4
COc1ccc2ccccc2c1/C=N/NC(=S)NCCN1CCOCC1	nt	-1	9	3%	0.1
COc1ccc(N2CCN(C(=O)CSc3nc4c(c(=O)n(C)c(=O)n4C)n3C(C)C)CC2)cc1	-19	4	10	-9%	-4.0
COc1cc(C(=O)Nc2ccc(NC(=O)c3ccccc3Cl)nc2)cc(OC)c1OC	nt	-9	nt	nt	-3.0
CN(C)C(CNC(=O)c1cccc(S(=O)(=O)NCc2ccccc2)c1)c1ccco1 (centres undefined)	nt	-1	nt	nt	0.6
CCCn1nc(C(=O)NCCc2ccc(S(N)(=O)=O)cc2)c2ccccc2c1=O	-2	-10	7	11%	0.1
COc1ccc(NC(=O)CN2CCN(c3ccc(Cl)cc3)CC2)c(OC)c1	-15	45	20	-4%	4.2
CCCSc1ncc(Cl)c(C(=O)Nc2ccc(S(=O)(=O)N3CC(C)OC(C)C3)cc2)n1 (centres undefined)	-16	-2	-3	9%	6.4
NNC(=O)CN1C(=O)CN=C(c2ccccc2)c2cc(Br)ccc21	nt	-2	nt	7%	2.7
N#CC1(NC(=O)CN2CCN(S(=O)(=O)c3ccccc3F)CC2)CCCC1	nt	-3	nt	-3%	2.2
CNC(=O)NC(=O)COc1c(F)c(F)cc(F)c1F	nt	2	2	5%	5.5
Clc1cc2nc(-c3cccnc3Cl)[nH]c2cc1Cl	nt	-10	nt	nt	0.6
Cc1ccc(CNC(=O)C2(S(=O)(=O)c3ccccc3)CC=CC2)cc1	nt	-1	nt	nt	-8.7
CCn1c(SCC(=O)Nc2c(C#N)cnn2-c2ccccc2)nnc1-c1cccs1	nt	-2	nt	-7%	1.0
Cc1cccc(N2CCN(C(=O)CCS(=O)(=O)c3ccc(Br)cc3)CC2C)c1 (centres undefined)	nt	-2	10	2%	-4.5
Cc1ccc2oc(=O)c3cnn(CC(=O)N(CCCN4CCOCC4)Cc4ccco4)c3c2c1	-12	-2	6	-4%	nt	Arbovirus inh repeat=0
COc1ccc(OC)c(NC(=O)CCNS(=O)(=O)c2cc(Br)cnc2N)c1	nt	-4	nt	nt	-0.4
CCOC(=O)C1CCN(c2cc3c(cc2NC(=O)c2ccccc2Br)n(C)c(=O)n3C)CC1	nt	86	nt	nt	-1.5
CCC1CCCCN1S(=O)(=O)c1ccc(C(=O)N(CCCN(C)C)c2nc3cc4c(cc3s2)OCO4)cc1 (centres undefined)	nt	6	nt	nt	2.0
Cc1ccc(OCCSc2nc(N)cc(N)n2)cc1	nt	-1	3	-2%	0.7
Cc1nn(C(C)C(=O)NCCCN2CCCCCC2)c(=O)c2c1sc1ccccc12 (centres undefined)	nt	-3	nt	nt	7.1
COCCNC(=O)c1onc(CSc2ccncc2)c1C(=O)NCCOC	nt	7	nt	-7%	-1.1
c1ccc(-c2cn(C[C@H]3CC[C@H](Cn4cc(-c5ccccn5)nn4)O3)nn2)nc1	nt	-6	nt	nt	-0.8
COc1ccc(C)cc1NC(=O)C(=O)NNC(=O)c1ccco1	-32	91	-2	0%	0.6
COc1ccc(C(=O)N2CCN=C2c2ccccc2)cc1OC	-33	-1	10	3%	1.2
Cc1ccc(NS(=O)(=O)c2cccc(C(=O)N3CCCCCC3)c2)cc1	nt	-9	nt	nt	1.9
Further records:
SMILES	YopH PTP inh	Mtb bLac sens	Arbovirus inh	Mtb H37Rv	RecA intein inh	others
Cc1ccccc1C(=O)NC(C(=O)Nc1nc2c(s1)CCCC2)C(C)C (centres undefined)	-24	9	-3	12%	8.2
O=C(N1CCN(c2ccccn2)CC1)C(Cl)(Cl)Cl	-2	-6	-7	0%	-1.4
C=CCSc1nc2ccccc2n1Cc1nnc(-c2cccs2)o1	-16	-10	-3	5%	2.5
Nc1c(Cl)ncnc1N/N=C/c1ccncc1	nt	8	nt	-10%	-4.0
COc1cccc(C2=NOC(C(=O)Nc3ccc4c(c3)OCO4)C2)c1OC (centres undefined)	nt	3	nt	nt	2.5
CCCC(=O)Nc1ccc(NC(=O)c2cccc(OC)c2)nc1	-49	-6	8	-3%	nt
CN1C(=O)c2ccccc2C(C(=O)NCc2ccco2)C1c1c[nH]c2ccccc12 (centres undefined)	-14	0	-2	-7%	3.0
COC(=O)c1ccc(N2CCCCC2)c(N)c1	nt	-2	-2	3%	1.7
CC1CCCN(C(=O)CCNC(=O)Cn2cnc3ccccc3c2=O)C1 (centres undefined)	nt	-6	nt	nt	1.2
CN(C(=S)Nc1ccc(F)cc1)C1(c2ccccc2Cl)CCCCC1=O (centres undefined)	-91	3	0	-6%	2.1
CC1CC(C)CN(C(=O)c2cccc3c2-c2ccccc2C3=O)C1 (centres undefined)	nt	-4	nt	2%	7.2
Cc1cc(NC(=O)CSCc2nc(-c3cccc(Cl)c3)oc2C)no1	-31	-6	2	nt	1.3	Arbovirus inh repeat=2
C=CCn1c(=NC(=O)c2cccc(N3C(=O)CCC3=O)c2)sc2cccc(OC)c21	nt	-5	nt	-13%	-0.8
O=C(Nc1cccc2ccccc12)N1CCc2ccccc2C1	-11	5	-6	13%	3.3
CCn1c(SC(C)C(=O)NCC2CCCO2)nc2scc(-c3ccccc3)c2c1=O (centres undefined)	nt	-6	nt	nt	-1.1
O=C(NC(=S)Nc1ccc(S(=O)(=O)N2CCCC2)cc1)C1CC1	nt	1	-4	5%	-1.3
CN(C)C(CNC(=O)c1cccnc1Sc1ccccc1)c1ccco1 (centres undefined)	9	12	-1	-2%	-0.9
CCN(CC)S(=O)(=O)c1ccc(C)c(NC(=S)N2CCN(C/C=C/c3ccccc3)CC2)c1	nt	-1	16	-2%	2.1
CCC(C)NC(=O)Cn1c(=O)n(CCCCC(=O)NCc2ccco2)c(=O)c2ccccc21 (centres undefined)	-29	-10	3	-7%	-1.1
Cc1cc(=O)[nH]c(N/N=C/c2cccc([N+](=O)[O-])c2)n1	-11	-1	0	-4%	-1.6
CCOc1ccc(C2(C)NC(=O)N(CCN(C)C)C2=O)cc1 (centres undefined)	nt	-2	nt	nt	-1.7
CCN(CC)c1ccc(/C=C2/C(=O)ON=C2C)cc1	-7	8	-15	9%	nt
COc1ccc(Cl)cc1NC(=O)c1cc(-c2ccco2)on1	nt	4	nt	nt	-0.1
COc1ccc(CCN2CC(C(=O)NC3CCCCC3)CC2=O)cc1OC (centres undefined)	nt	-3	-2	-3%	-1.3
COc1cc2c(C#N)c(N3CCCC3)nc(N)c2c(N)n1	nt	14&-8	nt	-15%&3%	1.7&1.2
CCc1nn(C(CC)C(=O)NCCc2ccc(OC)cc2OC)c(=O)c2cc3occc3n12 (centres undefined)	nt	0	nt	nt	1.6
Cc1cc(C)n2nc(SCc3cc(=O)oc4ccc5ccccc5c34)nc2n1	-30	3	1	nt	-1.6
Cc1onc(-c2c(F)cccc2Cl)c1C(=O)N1C=CC(C(F)(F)F)=NCC1	-9	-10	11	0%	0.8
CCONC(=NC)c1nonc1N	-17	-2	10	3%	0.4
C/C(CCC1CC(C)(C)OC1=O)=N\NC(N)=S (centres undefined)	nt	-11	nt	2%	-6.5

Reprinted from the part before: 2 compounds, followed by the next part.
SMILES	YopH PTP inh	Mtb bLac sens	Arbovirus inh	Mtb H37Rv	RecA intein inh	others
CCONC(=NC)c1nonc1N	-17	-2	10	3%	0.4
C/C(CCC1CC(C)(C)OC1=O)=N\NC(N)=S (centres undefined)	nt	-11	nt	2%	-6.5
CCOC(=O)C1CCCN(CCC(=O)Nc2ccc(Br)cc2)C1 (centres undefined)	nt	-1	nt	nt	0.9
CCOCCCn1c(=N)c(C(=O)NCc2ccc3c(c2)OCO3)cc2c(=O)n3ccccc3nc21	-26	nt	-38	nt	-16
CCOc1cc(C2C(C#N)=C(N)Oc3c2c(=O)oc2ccccc32)ccc1OC(=O)c1cccs1 (centres undefined)	-7	-1	0	-8%	0.7
Cc1ccccc1N=C1NC(=O)CC(c2ccccc2)S1 (centres undefined)	5	98	7	11%	4.4
Cc1cccc(-c2csc(NC(=O)c3cnccn3)c2C(=O)OC(C)C)c1	1	7	2	6%	nt
COc1ccc(CC(=O)Nc2ccc3c(c2)CCC3)cc1OC	12	-1	8	-4%	3.3
O=C(CCCCCn1c(=O)[nH]c2ccsc2c1=O)NCc1ccc2c(c1)OCO2	-18	-5	1	-6%	0.8
CC(C)NCCOCCOc1ccccc1F	-19	-10	-4	nt	-0.8
N#Cc1c(N)c(C#N)c(-c2ccc3c(c2)OCO3)c2c1CCCC2	nt	-3	-1	1%	2.5
CC1C(C#N)=C(SCC(N)=O)NC2=C1C(=O)CC(C)(C)C2 (centres undefined)	nt	-1	2	2%	-17

Next part; it opens with the three that closed the last part.
SMILES	YopH PTP inh	Mtb bLac sens	Arbovirus inh	Mtb H37Rv	RecA intein inh	others
CC(C)NCCOCCOc1ccccc1F	-19	-10	-4	nt	-0.8
N#Cc1c(N)c(C#N)c(-c2ccc3c(c2)OCO3)c2c1CCCC2	nt	-3	-1	1%	2.5
CC1C(C#N)=C(SCC(N)=O)NC2=C1C(=O)CC(C)(C)C2 (centres undefined)	nt	-1	2	2%	-17
CC(=O)Nc1ccc(NC(=O)c2cc(-c3cc(C)cc(C)c3O)n[nH]2)cc1	nt	7	nt	nt	-2.3
CC(C)NC(=O)CC1OC(=O)c2ccccc21 (centres undefined)	-14	1	9	-5%	-1.4
Cn1cccc1C(=O)NCC(c1ccco1)N1CCCCC1 (centres undefined)	nt	9	nt	nt	-0.4
CN1C(c2ccccc2)CC(=NO)CC1c1ccccc1 (centres undefined)	nt	99	nt	nt	1.5
